# Cruzain Triton – cruzain (T. cruzi) inhibition with detergent; P25779; purified cruzain, Z-FR-AMC fluorescence, 0.01% Triton; Potency, µM, inactives show max response, negative = inhibition, most hits filed as inhibitors; 200,000 compounds, 0.43% hits; active = well fitted curve in the direction sought with a large enough effect; inconclusive = small, poorly fitted or top-dose-only effect, or another doubt; inactive = no such curve, though single readings can be large; an effect the other way counts as inactive or inconclusive;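 note: plate controls were neutral wells for no effect and buffer without enzyme for full effect; nearly all actives have a fitted effect of over 40% in size; top concentration of the series not given in the record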
# Target sequence (P25779 123-467 limits assumed): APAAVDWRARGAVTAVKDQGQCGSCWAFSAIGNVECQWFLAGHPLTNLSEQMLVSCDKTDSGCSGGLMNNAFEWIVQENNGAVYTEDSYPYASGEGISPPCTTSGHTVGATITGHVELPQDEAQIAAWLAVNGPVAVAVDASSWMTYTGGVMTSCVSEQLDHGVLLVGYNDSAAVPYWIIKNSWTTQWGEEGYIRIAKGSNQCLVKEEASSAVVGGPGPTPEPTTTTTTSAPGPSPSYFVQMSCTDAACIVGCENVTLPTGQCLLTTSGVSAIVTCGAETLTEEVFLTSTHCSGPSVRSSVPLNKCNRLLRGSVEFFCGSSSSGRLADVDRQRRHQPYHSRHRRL
#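 Purified cruzain (1.5 nM final) was preincubated with compounds for 15 min at room temperature in 100 mM sodium acetate pH 5.5, 5 mM DTT, 0.01% Triton X-100. Reaction started with 2 uM Z-FR-AMC; AMC fluorescence change over 60 s gave activity.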
# SARS PLpro yeast – SARS-CoV PLP inhibition in yeast. S. cerevisiae expressing SARS-CoV PLpro, growth rescue; control for the full effect not named in the record. Potency, µM (doses to about 32.9 µM), without a hit: top-dose activity, positive = growth rescue. 330,000 compounds, 0.19% hits. AID 485353; note: 0% is about no effect; nearly all actives have a fitted effect of over 55% in size; growth read by luminescence after 48 h
# 2A StopGo – FMDV 2A StopGo reporter, luciferase signal; 410,000 compounds, 1.2% hits; AID 1159524; human cells with a luciferase reporter of 2A StopGo recoding; control for the full effect not named in the record; Potency, µM (titrated, usually from 57.9 µM), for the others: at the highest dose signal change, negative = less light; active = well fitted falling curve with a large enough effect; inconclusive = small, poorly fitted or top-dose-only effect; inactive = no such curve, though single readings can be large or run the other way; tested in HEK293T cells; note: % is set by controls: 0 for no effect and ±100 for the full control effect; nearly all actives have a fitted effect of over 45% in size; luciferase light after 4 h
# Cruzain inh noDet – blocks cruzain activity in detergent-free assay | P25779 | purified cruzain, Z-FR-AMC fluorescence, no detergent | Potency, µM, without a hit: max response, negative = inhibition, most hits filed as inhibitors | 200,000 compounds, 2.3% hits; active = well fitted curve in the direction sought with a large enough effect; inconclusive = small, poorly fitted or top-dose-only effect, or another doubt; inactive = no such curve, though single readings can be large; an effect the other way counts as inactive or inconclusive;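 note: plate controls were enzyme without inhibitor for no effect and buffer without enzyme for full effect; nearly all actives have a fitted effect of over 40% in size; top concentration of the series not given in the record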
#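 Detergent-free condition (0.00005% Triton X-100) in acetate buffer pH 5.5 with DTT. 1.5 nM enzyme and compound were pre-mixed 15 min, then 2 uM Z-FR-AMC substrate added; reaction progress from fluorescence change between first and third reads (60 s).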
# NS1 inh – inhibitors of influenza NS1 protein function | 270,000 compounds, 0.4% hits | S. cerevisiae slowed by influenza A NS1, growth recovery by OD600 | Potency, µM (top dose mostly 46.1 µM), inactives show at the top dose activity, positive = more growth | AID 2326; note: actives are rising curves; nearly all actives have a fitted effect of over 50% in size
#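 In this qHTS, NS1 from influenza A is expressed in budding yeast, where it slows growth. Cells are switched from glucose to 2% galactose medium (pH 6.0, -URA), treated with compound, and growth recovery is read at OD600.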
# LASV entry inh – blocks Lassa virus binding to or entry into cells; Lassa virus pseudotype entry inhibition, cell reporter; control for the full effect not named in the record; AID 540256; Potency, µM (top dose mostly 37.9 µM), inactives show at the top dose activity change, negative = inhibition, hits mostly inhibitors; 300,000 compounds, 1.2% hits; active means well fitted inhibition curve with a large enough effect; inconclusive means small, poorly fitted or top-dose-only effect, or effect the other way; inactive means flat fitted curve, though single readings scatter; tested in HEK293 cells; note: % is set by controls: 0 for no effect and ±100 for the full control effect; nearly all actives have a fitted effect of over 50% in size; luciferase read-out
# Marburg entry inh – inhibitors of Marburg virus binding or cell entry; Marburg virus pseudotyped entry inhibition, cell reporter; control for the full effect not named in the record; about a third of the inactives were read at about 46 µM; Potency, µM (doses to about 37.8 µM), inactives show top-dose activity change, negative = inhibition, usual class: inhibitors; 300,000 compounds, 1.8% hits; active = well fitted inhibition curve with a large enough effect; inconclusive = small, poorly fitted or top-dose-only effect, or effect the other way; inactive = flat fitted curve, though single readings scatter; tested in HEK293 cells; about a fifth of its hits are not listed in these tables; note: % is set by controls: 0 for no effect and ±100 for the full control effect; luciferase read-out
# RE007 growth inh – less growth of the S. pombe RE007 Vpr strain; S. pombe RE007 Vpr strain, BacTiter-Glo ATP luminescence, 24 h; control for the full effect not named in the record; Potency, µM (series often up to 92.2 µM), inactives show at the top dose activity change, negative = less growth; AID 651644; 360,000 compounds, 0.21% hits; active = well fitted falling curve with a large enough effect; inconclusive = small, poorly fitted or top-dose-only effect; inactive = no such curve, though single readings can be large or run the other way;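 note: % is set by controls: 0 for no effect and ±100 for the full control effect; nearly all actives have a fitted effect of over 50% in size; the assay follows cell death caused by Vpr and the record does not say whether a fall means rescue or toxicity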
#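 Fission yeast strain RE007, carrying one chromosomally integrated HIV-1 vpr copy, was seeded at OD 0.01 in PMG+AL medium with 23 nL pinned compound. After 24 h at 30 °C and 99% humidity, viability was read by BacTiter-Glo luminescence.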
# Starred values were filed as active, the others as inactive; u = inconclusive; x = not tested or not shown; & = joins results of further samples; [ ] = remark or other dose. Unless noted, calls come from the whole dose curve; as a rule, active means well fitted rising curve with a large enough effect; inconclusive means small, poorly fitted or top-dose-only effect; inactive means no such curve, though single readings can be large or run the other way. Potency is the fitted concentration of half-maximal effect.
# Sample of the layout (two entries):
SMILES,Cruzain Triton,SARS PLpro yeast,2A StopGo,Cruzain inh noDet,NS1 inh,LASV entry inh,Marburg entry inh,RE007 growth inh
Cc1cccc(NC(=O)C2CCN(S(=O)(=O)c3ccc4ccccc4c3)CC2)n1,x,-4.7%,25.1µM*,x,x,u,u,-15.3%
Cc1cccc(OCC(=O)NCC(=O)N/N=C/c2cccs2)c1,-5.7%,8.3%,-18.1%,-3.2%,-9.3%,5.1%,9.1%,-3.0%

# The listing, previewed entries included:
SMILES,Cruzain Triton,SARS PLpro yeast,2A StopGo,Cruzain inh noDet,NS1 inh,LASV entry inh,Marburg entry inh,RE007 growth inh
Cc1cccc(NC(=O)C2CCN(S(=O)(=O)c3ccc4ccccc4c3)CC2)n1,x,-4.7%,25.1µM*,x,x,u,u,-15.3%
Cc1cccc(OCC(=O)NCC(=O)N/N=C/c2cccs2)c1,-5.7%,8.3%,-18.1%,-3.2%,-9.3%,5.1%,9.1%,-3.0%
N#Cc1c(N)nc(SCc2ccccn2)c(C#N)c1-c1cccs1,-11.6%,3.1%,-1.3%,-13.2%,12.7%,u,1.0%&1.0%,7.0%
CSc1nc2ccccc2n1Cc1cccc(F)c1,5.9%,-4.9%,u,-7.6%,-38.5%,-5.3%,-3.4%[46.1 µM],2.9%
O=C1c2cccc3c(N4CCCCC4)ccc(c23)C(=O)N1c1ccccc1O,x,0.3%,-22.4%,x,4.4%,x,x,-2.6%
CCOC(=O)c1cccc(NC(=O)CSc2nnc(-c3ccoc3C)n2CC)c1,2.2%,3.2%,-24.2%,3.4%,-10.8%,7.2%,-10.6%,11.4%
CCOC(=O)CNC(=O)C1(NC(=O)CNC(=O)OCc2ccccc2)CCCC1,x,x,12.0%,x,x,8.5%,u,u
Cc1nnc(NC(=O)C23CC4CC(CC(C4)C2)C3)s1,x,1.4%,-16.7%,x,1.6%,x,x,223.4%
O=C(CN1C(=O)NC2(CCCC2)C1=O)N1CCc2ccccc2C1,x,-1.6%,16.2%,x,x,0.4%[46.1 µM],u,-5.1%
CCCc1nnc(NS(=O)(=O)c2ccc(OC)cc2)s1,x,0.4%,17.2%,x,-1.8%,0.9%,u,0.8%
CCOc1ccc2noc3c2c1C(=O)c1ccccc1-3,-1.8%,-6.9%,-20.1%,-22.0%,-12.3%,x,x,23.8%
O=C(CSCc1ccccc1)N/N=C/c1ccc(OCC(=O)N2CCCCC2)cc1,-2.4%,-22.3%,u,-2.9%,-12.0%,-9.7%,-7.9%,x
CCC(=O)c1ccc(OC(=O)/C=C/c2cc(OC)c(OC)c(OC)c2)cc1,x,2.5%,-2.3%,x,2.4%,18.5%[46.1 µM],u,-4.6%
O=C(NC1CCCC1)C1=COCCO1,4.0%,3.3%,-24.0%,0.4%,5.1%,7.2%,11.4%,10.7%
COC(=O)C1=C(C)NC2=C(C(=O)CC(C)(C)C2)C1c1ccsc1 (stereo not drawn),-5.3%,-6.4%,0.0%,-7.5%,2.5%,2.1%,0.0%,0.9%
CCCCCOC(=O)C(C)c1c(C)[nH]c(=S)[nH]c1=O (stereo not drawn),3.7%,-0.7%,u,-4.3%,-6.9%,5.5%,3.8%,18.0%
COc1ccc(C)cc1NC(=O)C(C)N1CCOCC1 (stereo not drawn),x,12.0%,-0.6%,x,-3.1%,-6.9%[46.1 µM],4.5%[46.1 µM],8.7%
Cc1ncc([N+](=O)[O-])n1S(=O)(=O)c1cc(Br)ccc1Br,x,-1.2%,-4.8%,x,16.9%,x,x,8.6%
O=C1NC(c2cccc3ccccc23)Nc2ccccc21 (stereo not drawn),x,x,5.3%,x,x,u,u,u
CC(=NCCCn1ccnc1)c1c(C)[nH]n(-c2ccc([N+](=O)[O-])cc2)c1=O,x,-0.7%,-9.2%,x,-5.0%,15.4%,u,-29.8%
CC1(C)CC(=O)C(C=NCCN2CCN(C(=S)Nc3cccc(Cl)c3)CC2)=C(O)C1,3.0%,0.7%,-12.2%,3.0%,-7.6%,-2.1%,11.3%,-9.2%
CCCC(=O)NC(=S)c1c(C)n(C)n(-c2ccccc2)c1=O,x,-6.8%,-12.3%,x,-1.5%,u,8.0%[46.1 µM],42.7%
O=C(CNc1ccc2ccccc2c1)N/N=C/c1ccncc1,x,-1.6%,38.6%[activator],x,-3.5%,x,x,-15.2%
CCOCC(=O)Nc1nc2c(s1)C(=O)CC(C)(C)C2,-4.0%,-0.3%,3.9%,-5.9%,-1.2%,x,x,-12.3%
COC(=O)c1cc(OC)c(OC)cc1NC(=O)Nc1ccccc1F,x,1.3%,1.5%,x,3.3%,11.8%,1.2%[46.1 µM],12.6%
CCOP(=O)(OCC)C(NCc1ccccc1)c1ccc(Br)cc1 (stereo not drawn),0.6%,-11.8%,-4.1%,u,-5.0%,3.4%,-23.6%[46.1 µM],8.9%
CCOc1ccccc1NC(=O)Nc1nnc(N2CCCCCC2)s1,-4.5%,x,-13.7%,-6.7%,x,u,u,x
CC1(C)CC(CC(=O)NNc2nc(-c3ccccc3)cs2)C(=O)O1 (stereo not drawn),-1.6%,14.1%,-6.4%,6.0%,25.6%,12.2%,1.26µM*,151.8%
Fc1cccc(CSc2ncnc3c2ncn3C2CCCCO2)c1 (stereo not drawn),x,x,14.2%,x,x,u,u,-14.8%
COCCNC(=O)CSc1nc2sccc2c(=O)n1-c1ccccc1,x,-2.6%,-22.5%,x,9.8%,24.1%,-4.9%[46.1 µM],30.5%
Fc1ccc(-n2nc(-c3ccccc3)c3cnc4ccccc4c32)cc1Cl,6.7%,x,-19.7%,5.0%,x,19.8%[46.1 µM],27.3%[46.1 µM],x
CCCCOC(=O)c1ccc(NC(=O)c2csnn2)cc1,-2.8%,x,18.6%,-16.4%,x,u,u,x
COc1cccc(NC(=O)CSc2nnc3scc(-c4ccc(Cl)cc4)n23)c1,-5.6%,x,u,2.5%,x,-15.0%[46.1 µM],-4.5%[46.1 µM],x
COCC(=O)N1CCC(Oc2ccc(C(=O)N3CCCCC3COC)cc2)CC1 (stereo not drawn),x,-0.2%,-12.1%,x,-5.2%,x,x,7.6%
CCCn1c(SCC(=O)NC2CCCC(C)C2C)n[nH]c1=O (stereo not drawn),0.1%,-0.3%,2.7%,-12.6%,-2.2%,1.1%,-0.8%,-2.4%
CC12CC3(C)CC(C)(C1)CC(C(=O)Nc1nn[nH]n1)(C2)C3,1.0%,8.3%,x,17.7%,3.8%,u,5.0%,9.1%
CC(C)NC(=S)N(C)C1(c2ccccc2Cl)CCCCC1=O (stereo not drawn),-2.0%,9.5%,-24.3%,1.1%,-11.8%,-0.9%,-43.3%,-0.3%
CCCOC(=O)CSc1nnc(-c2ccccc2)o1,-0.4%,x,-2.4%,6.5%,x,2.9%[46.1 µM],x,x
COc1ccccc1OCC(=O)Nc1ccc(O)cc1C(=O)O,-1.7%,4.4%,u,-2.8%,5.5%,-0.7%,u,-0.8%
COc1ccc(CC(=O)Nc2ccccc2-c2ccccc2)cc1OC,x,9.5%,u,x,-9.0%,-14.4%,x,-1.1%
O=C(NCC(c1ccco1)N1CCN(c2ccc(F)cc2)CC1)c1ccco1 (stereo not drawn),x,-4.5%,-24.7%,x,x,0.2%,11.2%,7.4%
O=[N+]([O-])c1cc2c(cc1/C=N/Nc1nc(Nc3ccccc3)nc(N3CCCCC3)n1)OCO2,-2.2%,1.1%,-4.0%,u,u,1.4%,-25.5%,-2.7%
O=C(CC1C(=O)NCCN1CC1CCCCC1)NCCCN1CCOCC1 (stereo not drawn),x,14.9%,-5.6%,x,-13.2%,4.2%,-3.4%,3.1%
COc1ccc(C(c2nnnn2CS(=O)(=O)c2ccc(C)cc2)N2CCN(Cc3ccccc3)CC2)cc1 (stereo not drawn),x,x,-2.8%,x,x,-13.4%,u,-4.1%
O=C(CCC1CCCN(C(=O)Cn2cnnn2)C1)NCc1ccccc1F (stereo not drawn),x,0.4%,10.2%,x,-0.3%,0.0%[46.1 µM],u,-1.5%
COC(=O)COc1ccc2c(-c3ccc(OC)cc3)cc(=O)oc2c1,-3.6%,11.1%,1.6%,2.0%,-4.9%,-6.8%,2.5%[46.1 µM],0.2%
COc1ccc(C2C(C(=O)O)CCC(=O)N2c2ccc(C)cc2)cc1OC (stereo not drawn),x,-0.3%,15.8%,x,7.3%,-0.1%,7.4%[46.1 µM],4.2%
Cc1ccc2oc(=O)c3cc(C(=O)N4CCN(c5ccccc5)CC4)sc3c2c1,1.8%,x,-2.9%,-9.2%,x,-16.4%[46.1 µM],11.0%[46.1 µM],x
CN(c1ncnc2c1c(-c1ccccc1)cn2-c1cccc(Cl)c1)C1CCCCC1,0.4%,x,-24.3%,-1.1%,x,9.0%[46.1 µM],x,x
CCOC(=O)/C(C#N)=C1/C=Nc2ccccc2N1,-1.7%,-18.5%,23.0%,-6.0%,-112.5%,-6.0%,2.8%,-25.9%
O=C(O)c1ccoc1CN1CCCCC1,-1.1%,2.4%,0.0%,11.9%,-6.9%,10.5%,6.1%,-3.5%[3.69 µM]
CC(C)n1c(SCc2ccc(Cl)cc2)nc2c1c(=O)[nH]c(=O)n2C,-1.4%,5.7%,-23.1%,u,0.8%,u,-8.1%[46.1 µM],19.9%

# For reference, part of the list above.
SMILES,Cruzain Triton,SARS PLpro yeast,2A StopGo,Cruzain inh noDet,NS1 inh,LASV entry inh,Marburg entry inh,RE007 growth inh
O=C(CC1C(=O)NCCN1CC1CCCCC1)NCCCN1CCOCC1 (stereo not drawn),x,14.9%,-5.6%,x,-13.2%,4.2%,-3.4%,3.1%
COc1ccc(C(c2nnnn2CS(=O)(=O)c2ccc(C)cc2)N2CCN(Cc3ccccc3)CC2)cc1 (stereo not drawn),x,x,-2.8%,x,x,-13.4%,u,-4.1%

# From PubChem

# Compounds were not picked by outcome; overall some 4.5% were active at least once.
